Bead autofluor: flagged as autofluorescent in microsphere protease counterscreen | compound autofluorescence counterscreen, microsphere flow cytometry; hits give high values | fluorescence intensity (concentration not given with the values) | 360,000 compounds, 3.1% hits | AID 624483;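 active = at least 3 SD above the mean of all compounds, about 16000 in these data; inconclusive = too few beads counted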;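 note: 100 nL of 1 mM stock went into each well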
ugtP null kill: compounds lethal to S. aureus RN4220 ugtP deletion mutant; OD600 growth, 16 h; some inactives read as strong as hits; growth inhibition, % (concentration not given with the values); 330,000 compounds, 0.54% hits; AID 1259309;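 active = z-score under -3 and OD600 up to 0.15 on both plates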;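 note: plate controls were untreated wells for no effect and antibiotic for full effect; wells of about 80 µL received 100 nL stock; the first replicate is given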
BJeLR viability: kills HRASV12-expressing BJeLR cells | inhibition, % (test concentration not listed) | BJeLR (HRASV12) viability, CellTiter-Glo ATP luminescence, 48 h; reference of the scale not given here | 300,000 compounds, 0.17% hits | AID 1554;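 active = replicate mean above 50%; inconclusive = above 50% but judged a plate artefact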;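 note: 50 nL library stock added to about 25 µL; numbers are from one replicate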
PrP 5UTR inh: suppresses PrP 5' UTR mRNA reporter expression | 340,000 compounds, 0.35% hits | inhibition, % (no concentration beside the values) | AID 488862 | cell-based PrP 5' UTR mRNA reporter, plate reader;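 active = every replicate at 50% or more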;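 note: 0 = median of the neutral control wells; tested in H4 reporter cells; numbers are from one replicate; inactives centre near -14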
Mtb hypoxia rep: reduces hypoxia-regulated biosensor signal in M. tuberculosis; fluorescence inhibition, % (concentration not given with the values); M. tuberculosis hypoxia-regulated fluorescent reporter, fluorescence; 300,000 compounds, 0.1% hits;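 active = 35 to 45% if threefold the growth effect, above 45% if 1.5-fold the growth effect; inactive = the rest, general growth blockers included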;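 note: wells of about 50 µL received 100 nL stock; 0% = vehicle wells and 100% = reference inhibitor wells; whole bacteria with a GFP reporter of the hypoxia response; strong numbers were not always called active; many hits fall short of the cut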
RN4220 kill: kills Staphylococcus aureus RN4220; S. aureus RN4220 growth, OD600, 16 h; AID 1259311; 330,000 compounds, 0.33% hits; inhibition, % (concentration not given with the values);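 active = z-score of -3 or lower and OD600 up to 0.18 on both plates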;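 note: plate controls were untreated cells for no effect and reference antibiotic for full effect; stock transfer was 100 nL into about 80 µL; one replicate is shown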
Mtb hypoxia rep growth: further read-out of Mtb hypoxia rep, marked with its call; growth inhibition, %; measured here: M. tuberculosis growth (absorbance);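 0% = vehicle and 100% = reference antibiotic; read after six days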
Numbers without * were called inactive; ? = inconclusive; . = not tested or not shown. Random draw from the library (roughly 4% active in at least one column).

SMILES | Bead autofluor | ugtP null kill | BJeLR viability | PrP 5UTR inh | Mtb hypoxia rep | Mtb hypoxia rep growth | RN4220 kill
Fc1ccc(CON=C2CCCc3nonc32)cc1 | . | 3 | . | . | 4 | 3 | 4.2
O=C(Nc1cccc(S(=O)(=O)NC2=NCCC2)c1)c1c(F)cccc1Cl | 5327 | . | 12 | -8 | . | . | .
CSC1=NC2C(N1)N(C)C(=O)N2C (stereo not given) | 2423 | 2 | 2 | -11 | . | . | 1.9
CN(C)C1=NCCN1CCC1CCCCC1 | 3971 | 2 | . | -2 | 10 | 13 | 1.9
CC(=O)N[C@@H](Cc1ccc(OC(F)(F)F)cc1)C(=O)O | 3711 | 9 | -3 | -18 | -2 | 3 | 2.5
Cc1ccc(N2C(=O)C3C4C=CC(CNC(=S)N5CCN(c6ccccc6)CC5)(O4)C3C2=O)cc1 (stereo not given) | 5800 | . | -4 | -3 | . | . | .
O=C(NNC(=O)c1c(F)cccc1F)c1ccccc1OC(F)(F)F | 4696 | 2 | -8 | -14 | 15 | -2 | 1.2
CCn1c(CC(=O)Nc2ccc(OC)cc2)nnc1SCC(=O)N1CCOCC1 | 4355 | 2 | -2 | -2 | 13 | 2 | 0.0
COc1cc(-c2nnc(SCC(=O)OC3CCCCC3)o2)cc(OC)c1OC | 6268 | 13 | -10 | -30 | 2 | 0 | 7.6
O=C(Cc1cccs1)NNC(=O)c1ccc(F)cc1 | 2547 | . | 6 | -25 | . | . | .
Cc1ccc(C(=O)OCC(=O)NCCC2=CCCCC2)cc1N | 4313 | 4 | -21 | -22 | 4 | 7 | 3.7
CO/N=C(/c1nonc1N)N1CCN(c2ccc([N+](=O)[O-])cc2)CC1 | 2505 | . | 10 | -16 | . | . | .
CC1=C(C#N)C(=O)N(C)C(C)(C)C1 | 2880 | 1 | -2 | -33 | -2 | -1 | -15
CC(NC(=S)NCc1ccc(F)cc1)C12CC3CC(CC(C3)C1)C2 (stereo not given) | 4747 | -19 | -7 | -25 | -4 | 0 | -13
CCC1CCCCN1C(=O)CCC(=O)Nc1nnc(C(F)(F)F)s1 (stereo not given) | 4120 | 21 | -2 | 10 | 4 | 4 | 11
Cc1c(C)c(C)c(S(=O)(=O)n2[nH]c(=O)c(CCO)c2C)c(C)c1C | 4661 | 2 | -1 | -46 | 4 | 5 | 6.1
CC(C)[C@H](NC(=O)c1ccco1)C(=O)NC12CC3CC(CC(C3)C1)C2 | 3179 | 21 | -2 | 0 | 2 | -3 | 9.3
COc1ccccc1-c1nnc(SC(C(=O)c2c[nH]c3ccccc23)c2ccccc2)n1C (stereo not given) | 2566 | -18 | 5 | -12 | -13 | -5 | -4.5
COC(=O)C1CCN(C(=O)COC(=O)[C@@H]2CC(O)CN2S(=O)(=O)c2ccc3c(c2)OCCO3)CC1 (stereo not given in full) | 2080 | 3 | 8 | -3 | -8 | 6 | -2.0
CN(CC(=O)Nc1cccc(F)c1)C(=O)c1ccc2c(=O)n3c(nc2c1)CCC3 | 5133 | -3 | -6 | -9 | -1 | -7 | 4.0
CC1=C(C)NC(=S)SC1 | 2965 | 8 | 2 | -3 | 0 | -1 | 7.0
Cc1c(Cl)cccc1NC(=O)CCC(=O)NNC(=O)CCC(=O)O | 7286 | 4 | -1 | -19 | 17 | -3 | 4.7
Clc1ccc(N=C2SCCS2)cc1 | 4682 | 6 | -3 | -3 | 2 | 2 | 7.9
O=C(Cc1ccc(F)cc1)Nc1nnc(SCC(=O)NC2CCCC2)s1 | 3055 | 5 | 6 | -16 | -9 | -3 | 4.4
CC1/C(=N/O)CC(c2ccco2)NC1c1ccco1 (stereo not given) | 2314 | . | 4 | -28 | . | . | .
O=C(NCCC1=CCCCC1)C1CCC(CNc2c(N3CCCCC3)c(=O)c2=O)CC1 (stereo not given) | 4868 | -3 | 4 | -20 | 8 | 47 | 2.4
CCn1c(SCC(=O)N2CCN(c3ccccc3)CC2)nnc1-c1cc2cc(Cl)ccc2o1 | 22674* | -11 | 3 | -4 | 7 | 9 | 5.7
CCCc1ccccc1OCCNC(C)=O | 2631 | -1 | -6 | 4 | . | . | 2.7
COc1cc(C(=O)NC(C)c2ccc(S(N)(=O)=O)cc2)ccc1OCC(=O)N1CCOCC1 (stereo not given) | 6188 | 1 | 5 | -12 | -7 | 6 | -0.3
COc1ccc(CCC(=O)NCCS(=O)(=O)N2CCN(c3ccccc3)CC2)cc1 | ? | -4 | 5 | -3 | -12 | -1 | -3.8
CN1CCN(C(=S)Nc2ccc(Cl)cc2Cl)CC1 | 2740 | 0 | -5 | -37 | . | . | 1.6
COc1cc(C=NNc2nc(N3CCCCC3)nc(N3CCCCC3)n2)ccc1OC(=O)c1ccco1 | . | 4 | . | . | 3 | 7 | 1.8
CCCCCCc1ccc(N2C[C@H](Cc3ccccc3)[C@@H](CC(=O)NCc3ccc(OC)cc3)C2=O)cc1 | 3740 | . | 1 | -14 | . | . | .
CCOCCN1CCN(c2c(CC)c(C)nc3cc(-c4cc(OC)cc(OC)c4)nn23)CC1 | 3181 | 1 | 7 | 9 | . | . | 0.5
CSc1nc(NS(=O)(=O)c2ccc(F)cc2F)nn1C | 5381 | 10 | 9 | -4 | 7 | 4 | 1.8
Cn1c(SCC(N)=O)nnc1-c1ccc(C(C)(C)C)cc1 | 4402 | -1 | -5 | -12 | 13 | 6 | 1.3
Cc1noc(NS(=O)(=O)c2ccc(NC(=O)c3cc(=O)c4ccccc4o3)cc2)c1C | 5613 | 4 | -2 | -24 | 11 | 5 | 4.7
O=[N+]([O-])c1ccc(N/N=C/c2ccccc2)c(F)c1 | 2652 | . | -5 | -37 | . | . | .
CCCCCCn1c(=O)c(C(=O)Nc2cccc(C)n2)c(O)c2ccccc21 | 4223 | 7 | 4 | 19 | 11 | 3 | 4.8
COc1ccccc1/C=C/C=NNC(=O)c1cccs1 | . | 6 | . | . | 7 | 14 | 1.0

The final 4 compounds of the section before are carried over, then new ones follow.
SMILES | Bead autofluor | ugtP null kill | BJeLR viability | PrP 5UTR inh | Mtb hypoxia rep | Mtb hypoxia rep growth | RN4220 kill
Cc1noc(NS(=O)(=O)c2ccc(NC(=O)c3cc(=O)c4ccccc4o3)cc2)c1C | 5613 | 4 | -2 | -24 | 11 | 5 | 4.7
O=[N+]([O-])c1ccc(N/N=C/c2ccccc2)c(F)c1 | 2652 | . | -5 | -37 | . | . | .
CCCCCCn1c(=O)c(C(=O)Nc2cccc(C)n2)c(O)c2ccccc21 | 4223 | 7 | 4 | 19 | 11 | 3 | 4.8
COc1ccccc1/C=C/C=NNC(=O)c1cccs1 | . | 6 | . | . | 7 | 14 | 1.0
Cc1c(NS(=O)(=O)c2cccc(C(=O)Nc3cccc(F)c3)c2)c(=O)n(-c2ccccc2)n1C | 4180 | 8 | . | -1 | -12 | 0 | 4.4
Cc1cccc(NC(=O)CCn2nc(C)cc2C)c1 | 4427 | -1 | -11 | -8 | . | . | 1.1
O=C(COc1ccc(Cl)cc1)OCC(=O)N1CCCCCC1 | 2821 | 1 | -10 | -18 | 17 | 6 | -9.8
CCSc1nc2sc3c(c2c(=O)[nH]1)CCc1ccccc1-3 | 2065 | -13 | -6 | -6 | -4 | 5 | 4.6
CNc1oc(-c2ccc(C)cc2)nc1P(=O)(c1ccccc1)c1ccccc1 | 4078 | 1 | -3 | -14 | -2 | 11 | 5.1
CC(C)OC(=O)c1c(NC(=O)c2ccco2)sc2c1CCCCC2 | 4642 | 45 | -2 | -4 | . | . | -4.2
CCOC(=O)[C@H]1[C@H]2COc3cc(OC)ccc3[C@@H]2N2C(=O)N(c3ccc(Br)cc3)C(=O)[C@@]12C | 3989 | . | -8 | -16 | . | . | .
Cc1ccc(S(=O)(=O)NCc2ccc3c(c2)OCO3)cc1C | 3297 | 12 | -14 | -2 | 7 | 0 | 5.4
CC1CCN(S(=O)(=O)c2cccc(C(=O)NC3CCCC3)c2)CC1 | ? | -7 | 8 | -12 | 9 | 1 | 2.3
Cc1cc(NC(=O)CCC(=O)N(c2ccccc2)C(C(=O)NC2CCCC2)c2cccs2)no1 (stereo not given) | 4940 | 2 | 3 | -21 | . | . | -2.0

A second format for 4 compounds above:
COC(=O)C1CCN(C(=O)COC(=O)[C@@H]2CC(O)CN2S(=O)(=O)c2ccc3c(c2)OCCO3)CC1 (stereo not given in full)
  Bead autofluor: 2080
  ugtP null kill: 3
  BJeLR viability: 8
  PrP 5UTR inh: -3
  Mtb hypoxia rep: -8
  Mtb hypoxia rep growth: 6
  RN4220 kill: -2.0

CN(CC(=O)Nc1cccc(F)c1)C(=O)c1ccc2c(=O)n3c(nc2c1)CCC3
  Bead autofluor: 5133
  ugtP null kill: -3
  BJeLR viability: -6
  PrP 5UTR inh: -9
  Mtb hypoxia rep: -1
  Mtb hypoxia rep growth: -7
  RN4220 kill: 4.0

CC1=C(C)NC(=S)SC1
  Bead autofluor: 2965
  ugtP null kill: 8
  BJeLR viability: 2
  PrP 5UTR inh: -3
  Mtb hypoxia rep: 0
  Mtb hypoxia rep growth: -1
  RN4220 kill: 7.0

Cc1c(Cl)cccc1NC(=O)CCC(=O)NNC(=O)CCC(=O)O
  Bead autofluor: 7286
  ugtP null kill: 4
  BJeLR viability: -1
  PrP 5UTR inh: -19
  Mtb hypoxia rep: 17
  Mtb hypoxia rep growth: -3
  RN4220 kill: 4.7

(continued)
SMILES | Bead autofluor | ugtP null kill | BJeLR viability | PrP 5UTR inh | Mtb hypoxia rep | Mtb hypoxia rep growth | RN4220 kill
COc1ccc(N(CC(O)Cn2c(C)nc3ccccc32)S(=O)(=O)c2ccccc2)cc1 (stereo not given) | 2408 | 4 | 4 | -1 | 3 | 7 | 2.3
CC(=O)Oc1ccc(-c2nc3cc(Cl)ccc3c(=O)o2)cc1 | 4142 | 4 | -7 | -26 | 14 | 3 | 2.1
Cc1ccc(-c2c(C(=O)NC(C)C)oc(=O)c3ccccc23)cc1 | 2444 | 13 | 3 | -13 | 3 | -6 | 0.5
COc1cccc(N2CC(C(=O)Nc3c(C(N)=O)oc4ccccc34)CC2=O)c1 (stereo not given) | 4998 | -3 | 11 | 1 | -2 | -6 | 3.7
COc1ccc(CNC(=O)c2nnn(CC(=O)Nc3cc(C)cc(C)c3)c2N)cc1 | 5388 | 2 | -1 | -6 | 2 | 9 | 4.0
CCC(C)Oc1ccc(C(=O)Nc2ccc(CN3CCOCC3)cc2)cc1 (stereo not given) | 4067 | 6 | 7 | -3 | -1 | 10 | 3.0
CCOc1ccccc1C=Nn1nnnc1N | . | 15 | . | . | -2 | -1 | 6.8
COc1ccc(C(=O)c2cc(C(C)=O)c(Nc3ccccc3)s2)cc1 | 1976 | -17 | -2 | -17 | -1 | -18 | -10
CCCC(NS(=O)(=O)c1ccc(-c2ccc(=O)[nH]n2)s1)c1cccs1 (stereo not given) | 4394 | 0 | -1 | -5 | -4 | -3 | 0.4
Cc1ccc(-c2cc(C(=O)N3CCc4ccccc4C3)no2)cc1 | 2670 | 19 | 5 | -23 | -1 | -3 | 2.8
CCCCNC(=O)CC1S/C(=N/N=Cc2ccc(OC)cc2)NC1=O (stereo not given) | . | 9 | . | . | 15 | 9 | 10
CCc1noc(C)c1C(=O)NNC(=O)c1ccc(Br)cc1 | 4560 | 1 | -8 | -32 | 5 | 6 | 1.9
O=C(COc1ccccc1)N1CCN(C(=O)c2cccc(F)c2)CC1 | 3077 | 0 | -4 | -24 | 10 | 4 | 6.8
COc1ccc(S(=O)(=O)N2CCN(C(=O)COc3ccc4c(C)cc(=O)oc4c3)CC2)cc1 | . | -4 | . | -29 | 5 | 8 | 2.1
O=C(/C=C/Nc1ccccc1O)c1ccco1 | 5245 | -9 | -2 | -98 | 19 | 23 | 2.8
Cc1ccccc1C(=O)Nc1cccc(NC(=O)c2ccc(F)cc2)c1 | 3414 | 5 | 4 | -1 | 7 | -4 | 5.4
Cc1ccc(C(=O)NCC(=O)NCC(=O)OCC(=O)c2cccs2)cc1 | 9296 | -3 | -7 | -19 | -2 | 2 | -0.6
COC(=O)c1cc(NC(=O)C2C3C=CC(C3)C2C(=O)O)cc(C(=O)OC)c1 (stereo not given) | 11370 | 4 | 1 | -18 | 5 | 5 | -0.5
CN(CC(=O)Nc1ccc(Cl)cc1)C(=O)COc1ncnc2ccccc12 | 5669 | -3 | . | -15 | 1 | 10 | 0.2
